Screens: PubChem, several laboratories
T cruzi repl = T. cruzi replication inhibition; T. cruzi beta-gal in NIH3T3, luminescence, 90 h; inhibition, % (concentration not given with the values); hit rate 1.4% among 300,000; AID 1885;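 active means mean inhibition across valid replicates above about 55%, limit read from the data; inconclusive means mean below that limit but half or more replicates reach it; inactive means mean below it, under half of replicates reach it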;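 further: signal also drops with host cell toxicity which is not excluded here; 0% = plate median of DMSO wells and 100% = zero luminescence signal; higher percent means less beta-gal luminescence so fewer parasites; stock transfer was 50 nL into about 50 µL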
Calb FLC = affects C. albicans growth with fluconazole; AID 1979; C. albicans CaCi-2 (fluconazole-resistant clinical isolate) + fluconazole, Alamar Blue growth, 48 h; growth inhibition, % (test concentration not listed); hit rate 0.57% among 300,000;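 active means most replicates above 75%; inconclusive means exactly half above 75%; inactive means most below 75%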;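 further: all wells also contain fluconazole at 8 µg/ml as a sub-toxic cotreatment; 0% = median of DMSO wells and 100% = median of geldanamycin control wells; wells of about 8 µL received 7.5 nL stock; the first replicate is given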
rRNA inh HTS = inhibits bacterial ribosomal RNA function over humanized ribosomes. hit rate 1.6% among 350,000. E. coli WT GFP vs humanized-ribosome RFP mutants, fluorescence, 24 h; stronger effect = lower value; DMSO median 0, no signal -100. GFP signal change (wild-type ribosome), % (test concentration not listed);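 active means significant combined selectivity score with lowered wild-type GFP, culture density cut under 30%, mutant RFP and density less affected; inactive means any of these conditions unmet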; further: one replicate is shown; some compounds called inactive have numbers as strong as hits
Beta apoptosis = beta cell apoptosis inhibition; INS-1E cytokine-induced death, ATP luminescence, 48 h; percent of positive-control rescue, neutral wells zero; protection from apoptosis, % (test concentration not listed); hit rate 0.8% among 300,000;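 active means all replicates at 75% or more, or half of them and the mean; inconclusive means half reach 75% but not the mean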;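 further: 0% = cytokine-treated negative control wells and 100% = positive control rescue; higher means more ATP so stronger rescue from cytokine killing; wells of about 40 µL received 100 nL stock; the first replicate is given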
MLL AF4-AF9 inh = MLL-AF4/AF9 protein interaction inhibition; P42568; AlphaScreen, biotin-AF4 peptide binding to FLAG-AF9; inhibition, % at 10 µM; hit rate 0.47% among 350,000;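 active means every replicate reaching a set inhibition limit, whatever the replicate mean, cut at about 25% in these data; inconclusive means mean inhibition reaches that limit but some replicates miss it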;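 further: 0% = plate neutral control median and 100% = total signal loss; the record names both 10 and 1 µM as test concentration; the first replicate is given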
Target sequence (P42568 whole entry, looked up): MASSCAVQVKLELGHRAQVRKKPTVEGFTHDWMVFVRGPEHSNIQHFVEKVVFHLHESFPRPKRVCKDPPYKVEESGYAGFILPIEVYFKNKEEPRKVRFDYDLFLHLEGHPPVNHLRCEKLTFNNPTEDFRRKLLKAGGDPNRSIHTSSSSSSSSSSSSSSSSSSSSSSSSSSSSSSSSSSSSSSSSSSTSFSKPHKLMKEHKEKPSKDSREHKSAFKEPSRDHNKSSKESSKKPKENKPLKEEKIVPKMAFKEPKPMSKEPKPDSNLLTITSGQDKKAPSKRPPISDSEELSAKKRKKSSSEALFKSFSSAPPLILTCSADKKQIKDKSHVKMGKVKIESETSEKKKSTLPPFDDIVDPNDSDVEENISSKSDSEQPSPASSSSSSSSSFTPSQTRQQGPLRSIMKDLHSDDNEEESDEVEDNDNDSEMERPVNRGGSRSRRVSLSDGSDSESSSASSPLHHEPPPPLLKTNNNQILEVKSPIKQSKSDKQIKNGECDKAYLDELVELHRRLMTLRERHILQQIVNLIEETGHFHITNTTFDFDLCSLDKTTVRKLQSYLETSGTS
A1 inh = inhibitors of the anti-apoptotic protein A1, read as caspase activation; MEF A1-2A-BIM cells, Caspase-Glo 3/7 luminescence, 3 h; percent of clofoctol response, vehicle zero; caspase activation, % (concentration not given with the values); hit rate 0.066% among 330,000; AID 2462;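 active means over half of replicate activation scores above 10%, or exactly half above 10 with the replicate mean above 10; inconclusive means replicate mean below 10 yet half the replicates above 10; inactive means over half of replicates below 10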;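 further: wells of about 30 µL received 50 nL stock; many hits fall short of the cut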
RanGTP-Imp inh = inhibitors of RanGTP-importin-beta interaction, primary screen, biochemical, FRET, CFP-Ran, YFP-importin-beta, homogeneous | cell-free CFP-Ran/YFP-importin-beta FRET ratio | hit rate 1.1% among 300,000 | inhibition, % (test concentration not listed);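 active means most replicates above 15%; inconclusive means exactly half above 15%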;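 further: 0% = DMSO wells and 100% = Ran loaded with GDP instead of GTP; wells of about 40 µL received 100 nL stock; the first replicate is given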
Vif A3G = inhibitors of Vif binding to APOBEC3G peptide, primary screen, biochemical, TR-FRET, GST-Vif 1-94, biotin-A3G peptide, dose response retest (AID 1117319); inhibition, %, or IC50 in µM where a hit was titrated; hit rate 0.57% among 260,000; TR-FRET GST-Vif / biotin-A3G peptide binding; higher % means a stronger effect; test concentration not given here; strong numbers were not always called active;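 active means above the screen mean plus three standard deviations and confirmed in dose response; inconclusive means results disagree or hit not tested in dose response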;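 further: Vif residues 1-94 fused to GST binding biotinylated APOBEC3G peptide 110-148; 0% = full assay without inhibitor and 100% = GST in place of GST-Vif; retest series ran down from 100 µM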
rRNA inh HTS OD600 = recorded beside rRNA inh HTS, whose call it bears; OD600 change, %; measured here: OD600 growth;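 optical density of the mix in the first replicate; 0 = DMSO median and -100 = no signal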
rRNA inh HTS RFP = further read-out of rRNA inh HTS, marked with its call; RFP signal change, %; measured here: RFP humanized mutant strains;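 first replicate; 0 = DMSO median and -100 = no signal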
Numbers without * were called inactive; ? = inconclusive; . = not tested or not shown. A portion of the library. The share of hits here may be higher or lower than overall.

Sequence of screens – T cruzi repl	Calb FLC	rRNA inh HTS	rRNA inh HTS OD600	rRNA inh HTS RFP	Beta apoptosis	MLL AF4-AF9 inh	A1 inh	RanGTP-Imp inh	Vif A3G
COc1ccc(N2CCN(C3CCCN(Cc4cccc(C(C)=O)c4)C3)CC2)cc1 (stereo not given)
 : 54	-12	6	2	-1.8	3	9.3	3.6	-1.8	.
COC(=O)c1ccc(OCCOc2ccccc2)cc1
 : -16	-20	.	.	.	-5	.	-0.6	3.1	28%
CCOC(=O)c1cc(-c2ccccc2C)n(CC2CC(c3ccc(OC)cc3)=NO2)n1 (stereo not given)
 : .	.	-19	-15	-16	-4	-2.3	0.0	.	.
CC(Oc1ccccc1)C(=O)N1CCC2(CC1)Oc1ccc(Cl)cc1C(=O)C21CC(c2ccccc2)=NO1 (stereo not given)
 : 30	1	.	.	.	2	.	-0.4	0.7	.
COc1ccc(C(C)=O)cc1COC(=O)c1ccc(S(=O)(=O)N(C)C)cc1
 : -9	10	-10	-1	-0.6	-2	-3.6	-0.2	2.6	2%
CC(C(=O)Nc1ncn[nH]1)N1C(=O)c2ccccc2C1=O (stereo not given)
 : 6	-5	.	.	.	-7	.	-1.0	1.2	.
CCOC(=O)c1c(N2C(=O)Nc3ccccc3N2O)sc2c1CCCCC2
 : -13	24	-17	-5	0.2	-9	1.5	-0.8	3.5	.
Cc1cc2ncn(-c3ncnc4sc5c(c34)CCCC5)c2cc1C
 : -13	-6	.	.	.	-4	.	2.5	0.1	0%
C/C(=N\OC(=O)NC(C)C)c1sc(-c2ccc(Cl)cc2)nc1C
 : 46	-19	.	.	.	6	.	0.1	0.2	3%
C=CCOc1cccc(/C=N/NC(=O)C(=O)NCc2ccco2)c1
 : -10	6	.	.	.	-5	.	0.0	-2.5	13%
Cc1ccc(C(=O)COc2ccccc2N2C(=O)c3ccccc3C2=O)cc1
 : -6	-7	15	15	0.0	-3	-3.8	0.2	0.1	.
Cn1c(CCNC(=O)c2ccco2)nc2cc(NC(=O)c3ccccc3Cl)ccc21
 : 6	-2	3	15	0.0	-13	-2.0	-0.4	-2.5	.
O=C(CCc1ccccc1)NNC(=O)Cc1ccc(Cl)cc1
 : -9	1	2	10	-2.5	1	-1.0	-0.7	-1.9	6%
CSc1ccc(/C=N\NC(=O)CC(=O)NC(C)C)cc1
 : -15	-4	10	9	3.4	-7	0.1	?	5.1	-8%
COc1cc(C2/C(=C(\O)c3ccc4c(c3)CC(C)O4)C(=O)C(=O)N2Cc2ccco2)ccc1O (stereo not given)
 : 0	5	-25	-33	-8.1	-8	0.0	-2.1	6.6	.
CCC1C(=O)N=C(SCC(=O)Nc2ccc(Br)cn2)NC1=O (stereo not given)
 : -20	-8	5	7	-0.7	-4	-0.3	0.8	0.9	.
O=C(CCCl)Nc1ccc(S(=O)(=O)NCc2ccco2)cc1
 : -6	-6	6	0	-3.9	-5	2.9	0.6	5.7	2%
COc1ccc(CCNC(=O)CN2C(=O)NC(c3ccccc3)(c3ccccc3)C2=O)cc1
 : .	.	.	.	.	-4	2.4	-1.6	.	3%
Cc1ccc(NC(=O)Cc2c(C(=O)O)n(C)c3ccccc23)cc1F
 : -17	-7	-35	-52	-3.9	.	-2.5	-0.2	-6.5	.
CCC(=O)c1ccc(OCC(=O)OCC(=O)N2CCc3ccccc32)cc1
 : -11	-3	-7	6	-2.9	-4	1.6	-0.2	-1.0	-11%
COn1c(SCC(=O)N(C)C)nc2ccccc2c1=O
 : -20	1	.	.	.	-1	.	0.7	1.8	15%
O=S(=O)(c1ccc2nc(Nc3ccccc3)ccc2c1)N1CCCCC1
 : 21	3	-8	-37	8.3	103*	-4.0	0.2	-3.2	.
CC(C)[C@H](NC(=O)N1CCn2c1nc1ccccc12)C(=O)NCC1CCCO1 (stereo not given in full)
 : -19	0	2	9	-0.9	-10	-4.1	-1.2	4.1	-3%
O=C(NNS(=O)(=O)c1ccc(Br)cc1)c1ccncc1
 : -15	-3	.	.	.	-2	.	-0.7	-0.8	9%
O=C(CSc1nc2ccccc2c(=O)n1-c1ccc(F)cc1)Nc1ccc(N2CCOCC2)cc1
 : 14	-2	-2	2	-2.2	10	-4.4	-0.1	-1.2	.
N#Cc1c(NC(=O)c2cccc(S(=O)(=O)Nc3ccc(C(=O)O)cc3)c2)sc2c1CCCC2
 : -6	1	-24*	-12*	-3.8*	-2	-4.3	-0.1	-4.4	3%
CNC(=O)NNC(=O)c1csc(Cc2c(Cl)sc3ccc(Cl)cc23)n1
 : 18	7	-2	10	5.6	-3	-1.2	0.9	0.1	-4%
O=[N+]([O-])c1ccccc1OCCCn1cnc2ccccc21
 : -3	15	-12	-16	-1.8	.	6.0	.	-0.2	-8%
Clc1ncc2[nH]cnc2n1
 : -29	-10	12	12	-5.1	-6	0.6	0.2	-0.9	1%
CC(=O)Nc1ccc(S(=O)(=O)NCCC(=O)Nc2cc(C)ccn2)cc1
 : -10	2	6	7	-1.1	1	4.0	-0.4	0.5	7%
CCCCNC(=O)NNC(=O)c1cc(C)on1
 : -3	1	1	8	1.5	-6	2.7	-1.7	2.1	-3%
O=C(O)/C=C/C(=O)Nc1ccc(Cl)cc1C(=O)c1ccccc1
 : -11	0	-23*	-7.9*	1.7*	3	-4.9	1.9	-0.1	-2%
COc1ccc2c(CC(=O)OCC(=O)Nc3ccc(C)cc3)coc2c1
 : .	.	-1	2	3.7	0	1.2	1.2	.	-4%
Cc1nnc(SCC(=O)Nc2cccc(Br)c2)s1
 : .	.	-5	-13	-1.5	-2	0.8	1.2	.	2%
CCN(CC)CCCC1(CN)OCCc2ccccc21 (stereo not given)
 : -13	7	.	.	.	-3	.	1.2	4.8	3%
O=C(CCl)Nc1cccc2ncccc12
 : 10	-2	.	.	.	6	.	2.2	?	13%
Cc1nnc(NC(=O)COc2ccccc2)s1
 : 5	-5	.	.	.	.	.	0.5	0.3	4%
O=C(c1ccc2c(c1)N(Cc1ccc(F)cc1)CCS2)N1CCOCC1
 : -13	9	-2	-18	-4.6	1	3.0	0.2	0.4	.
COc1ccccc1NS(=O)(=O)c1cc(NC(=O)C(C)C)ccc1N1CCCCC1
 : -4	21	4	-3	8.1	10	1.2	-1.0	2.6	-2%
CCOC(=O)c1ccc(NC(=O)C2CC2)cc1
 : 0	-11	.	.	.	3	.	-0.4	-2.3	2%
NC(=O)CC(NC(=O)c1ccccc1)c1ccc(N2CCC(Cc3ccccc3)CC2)c([N+](=O)[O-])c1 (stereo not given)
 : -19	7	8	3	-3.8	-31	-0.9	-0.7	5.3	.
CCOc1cc(/C=N/O)ccc1OCc1ccccc1F
 : 2	-15	.	.	.	-8	.	0.6	1.3	9%
Cn1c(O)c(N=Nc2ccc(F)cc2)c2ccccc21
 : -21	-30	22	20	3.1	1	8.9	-2.3	-6.0	-2%
CC(C)(CNC(=O)c1ccc(S(=O)(=O)Nc2ccc(Cl)cc2)cc1)N1CCOCC1
 : .	.	-2	-1	5.0	0	0.0	-0.8	.	.
O=C(O)CCN(Cc1ccccc1)S(=O)(=O)c1c(Cl)cccc1Cl
 : -2	14	-20	-17	-4.1	-12	-1.2	2.0	-1.5	.
Cc1ccc(S(=O)(=O)NCCc2nnc3ccc(SCC(=O)Nc4nc(C)cs4)nn23)cc1
 : -8	4	8	6	-1.5	2	9.2	-0.9	3.0	3%
CC(C)(C)NC(=S)N/N=C/c1cccnc1
 : -45	5	17	6	3.2	0	-1.8	0.4	1.7	-7%
S=c1[nH]nc(COc2ccc(Cl)cc2)n1Cc1ccccc1
 : -3	19	14	9	-1.3	-6	-0.5	0.1	?	87%
Cc1ccc(S(=O)(=O)N2CCC(=O)N(C(COCc3cccc(Cl)c3)C(C)C)CC2)cc1 (stereo not given)
 : 16	7	-16	-13	4.0	2	.	2.8	-2.0	13%
CC1=C(C(=O)Nc2cc(C)ccc2C)C(c2cccs2)NC(=S)N1 (stereo not given)
 : 0	1	.	.	.	3	.	0.7	-1.9	-8%

Other entries.
Sequence of screens – T cruzi repl	Calb FLC	rRNA inh HTS	rRNA inh HTS OD600	rRNA inh HTS RFP	Beta apoptosis	MLL AF4-AF9 inh	A1 inh	RanGTP-Imp inh	Vif A3G
CC(C)(C)c1cc(CCC(=O)NCc2ccncc2)cc(C(C)(C)C)c1O
 : 3	-6	.	.	.	1	.	-0.5	0.6	.
O=C(N/N=C/C(Cl)=C\c1ccccc1)c1ccco1
 : -9	6	11	12	0.4	-2	1.4	-5.2	-2.4	0%
CCOc1ccc(NC(=O)CN(C)C(=O)c2ccccc2OCc2c(C)noc2C)cc1OCC
 : 22	3	4	1	-0.2	1	21	1.3	3.0	-1%
S=c1nccc(-c2cccs2)[nH]1
 : -13	-6	9	-7	-7.7	-16	-3.1	-0.9	3.2	-10%
CCOC(=O)C(C(=O)OCC)C(Nc1cccc(Br)c1)c1ccccc1 (stereo not given)
 : -44	4	.	.	.	-6	.	.	-6.1	0%
COc1cc(/C=N/NC(=O)c2cc(-c3cccc(OC(C)C)c3)nc3ccccc23)ccc1O
 : 17	23	8	8	1.8	6	7.1	-0.1	-0.6	.
Cc1ccc(S(=O)(=O)N2CCOCC2)cc1NC(=O)CNC(C)c1ccccc1 (stereo not given)
 : .	.	6	1	1.6	4	-5.0	0.0	.	1%
c1ccc(-c2ccccn2)nc1
 : 6	.	5	8	-0.5	.	-5.2	0.7	0.2	27%
CCOc1nc2ccccc2nc1C
 : -2	2	.	.	.	-1	.	0.2	-0.4	6%
